KCNQ2 pot = KCNQ2 (rat) channel potentiation | CHO-K1 KCNQ2, FluxOR thallium flux fluorescence; stronger effect = higher value | B-score at 10 µM | hit rate 0.54% among 310,000 | AID 2239;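 active means fluorescence ratio B-score at least 3 SD of library B-scores, with initial fluorescence B-score within 3 SD, cut at about 5.3 in these data; same plate scores as AID 2156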;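 further: B-score of peak minus minimum over baseline fluorescence ratio after K+ and Tl+ stimulus; positive B-score means potentiation of KCNQ2 with more thallium influx and brighter signal; only the inactives scoring about 0 or higher are listed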
Target sequence (O88943 whole entry, looked up): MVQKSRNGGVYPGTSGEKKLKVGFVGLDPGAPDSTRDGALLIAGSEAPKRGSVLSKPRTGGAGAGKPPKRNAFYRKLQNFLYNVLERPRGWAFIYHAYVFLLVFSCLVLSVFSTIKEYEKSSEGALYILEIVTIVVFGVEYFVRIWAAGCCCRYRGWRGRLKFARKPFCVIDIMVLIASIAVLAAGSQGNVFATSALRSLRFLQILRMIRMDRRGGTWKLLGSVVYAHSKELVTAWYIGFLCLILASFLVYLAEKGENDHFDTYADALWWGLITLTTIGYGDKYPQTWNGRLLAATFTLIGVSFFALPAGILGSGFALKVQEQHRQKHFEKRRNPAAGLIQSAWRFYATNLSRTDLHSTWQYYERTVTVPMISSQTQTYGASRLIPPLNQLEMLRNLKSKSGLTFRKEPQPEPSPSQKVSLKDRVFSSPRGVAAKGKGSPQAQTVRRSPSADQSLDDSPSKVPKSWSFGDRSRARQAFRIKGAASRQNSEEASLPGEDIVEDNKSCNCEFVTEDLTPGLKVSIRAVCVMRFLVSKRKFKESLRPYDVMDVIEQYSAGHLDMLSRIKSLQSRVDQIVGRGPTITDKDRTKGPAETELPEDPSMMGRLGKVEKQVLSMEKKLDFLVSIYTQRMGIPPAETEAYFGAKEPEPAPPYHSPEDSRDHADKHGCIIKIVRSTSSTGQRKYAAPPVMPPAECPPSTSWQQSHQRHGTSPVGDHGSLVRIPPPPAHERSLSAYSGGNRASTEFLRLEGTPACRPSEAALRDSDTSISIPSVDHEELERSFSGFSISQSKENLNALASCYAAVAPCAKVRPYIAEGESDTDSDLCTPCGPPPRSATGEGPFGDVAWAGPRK
KCNQ2 pot baseline = second read-out of KCNQ2 pot, no call of its own (marks repeat the call); B-score; compound at 10 µM; measured here: initial fluorescence intensity artifact check;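 brightness before thallium and not channel activity; 0 = typical well and far values either way flag optical interference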
The depositor's hits bear a star.

smiles	KCNQ2 pot	KCNQ2 pot baseline
Cn1cccc1C(NC(=O)c1ccccc1)C(Cl)(Cl)Cl (stereo unspecified)	0.76	0.51
CCOc1ccc(N(CC(=O)NCc2cccc(OC)c2)S(=O)(=O)c2c(C)noc2C)cc1	1.1	-1.7
CCCN(CCC)CCNC(=O)C1c2ccccc2C(=O)N(CCOC)C1c1ccc(F)cc1 (stereo unspecified)	1.9	-0.86
COc1ccc(OCC(O)Cn2c(=N)n(CCN3CCOCC3)c3ccccc32)cc1 (stereo unspecified)	1.9	0.04
COC(=O)c1sccc1NC(=O)C1C2C=CC(O2)C1C(=O)O (stereo unspecified)	2.8	-1.3
COc1ccc(NC(=O)CCNS(=O)(=O)c2cccc3nonc23)cc1	0.02	-0.6
CCOc1ccc2[nH]cc(S(=O)(=O)c3ccc(Cl)cc3)c(=O)c2c1	1.2	-1.5
CCCC(NC(=O)CCc1c(C)c2cc3c(-c4ccccc4)coc3cc2oc1=O)C(=O)O (stereo unspecified)	3	-0.84
Cc1ccc(C)c(CSc2nnc(C)c(=O)[nH]2)c1	0.17	-0.95
CS(=O)(=O)N1CCN=C1SCc1ccc(F)cc1	0.02	-0.57
Cc1cccc(C(=O)O/N=C(\N)CS(=O)(=O)c2ccccc2)c1	0.89	0.02
O/N=C1/CCCCc2sccc21	1.1	0.1
Cc1cc(C)n(CCNS(=O)(=O)c2ccc(C)c(C)c2)n1	1	-0.07
Cc1cccn2c(=O)c3cc(C#N)c(=N)n(CCN4CCOCC4)c3nc12	0.53	1.2
COc1ccc2cc(C(=O)N3CCN(C)CC3)[nH]c2c1	0.14	0.27
Cc1nc2ccccc2c(=O)n1CC(=O)N1CCOCC1	0.48	0.1
COc1ccc(-n2nnc3c(SCC(=O)NCc4ccco4)ncnc32)cc1	0.28	0.15
C/C(=N\NC(=O)c1ccc(O)cc1)c1cccc(NC(=O)c2ccc(Cl)cc2)c1	1.5	-0.44
CCOc1ccc(Nc2nc(Cc3nnc(SCC(=O)N(CC)CC)n3C)cs2)cc1	1.4	1.1
c1ccc2c(c1)[nH]c1ccccc12	0.17	-0.62
COc1cc(OC)cc(C(=O)NCC(=O)OCC(=O)c2ccc3c(c2)-c2ccccc2C3)c1	0.58	-1
CCOc1ccc(N(CC(=O)NCC2CCCO2)S(=O)(=O)c2ccc(OC)c(OC)c2)cc1 (stereo unspecified)	1.6	-0.09
C=CCc1cc(/C=N\NC(=O)CSc2nnc(CCCc3ccc(OC)c(C)c3)o2)cc(OC)c1O	1.1	0.08
CCOc1ccc(S(=O)(=O)N2CCCC(C(=O)NCc3ccncc3)C2)cc1C (stereo unspecified)	0.43	-0.45
Cc1ccc(S(=O)(=O)N2C(=O)/C(=C3\SC(=S)NC3=O)c3ccccc32)cc1	3.1	0.14
Oc1ccccc1/C=N/n1cnnc1	0.74	0
COc1cccc(/C=N/Nc2nn3cnnc3c3ccccc23)c1	1	-1.3
CN(Cc1c(F)cccc1Cl)C(=O)c1ccc(NC(=O)CC2SC(N3CCCC3)=NC2=O)cc1 (stereo unspecified)	0.88	-1.2
CC1(C)CC(=O)C(C=NCC2CCNCC2)=C(O)C1	0.02	-0.18
COc1ccc(C(=O)OC(C)C(=O)NC(C)CCc2ccccc2)cc1[N+](=O)[O-] (stereo unspecified)	0.53	-0.48
Nc1c(Cl)c(Cl)nc(C(=O)N/N=C/c2ccco2)c1Cl	1.8	-0.54
COc1cc(SC)ccc1C(=O)Nc1ccc(C)cc1C	1	-0.62
O=C(COc1ccccc1F)Nc1ccc(S(=O)(=O)NCc2ccco2)cc1	1.6	1.2
CC(C)c1nnc(NC(=O)c2ccc3ccccc3c2)s1	2.4	-0.35
Cc1ccc(N=C2NC(=O)/C(=C\c3ccco3)S2)cc1	0.23	-0.89
CCCCCCCCOC(=O)C(NC(=O)CCC(=O)Nc1ccc(S(N)(=O)=O)cc1)C(O)c1ccccc1 (stereo unspecified)	1.6	-0.39
Cc1ccc(S(=O)(=O)N(CCCO)CC(O)CON=C2c3ccccc3-c3ccccc32)cc1 (stereo unspecified)	0.45	-0.37
Cc1oc(-c2ccc(Cl)cc2)nc1CS(=O)CC(=O)NCc1ccccn1 (stereo unspecified)	0.72	0.77
C/C(=N\NC(=O)COc1ccccc1[N+](=O)[O-])c1cccs1	0.91	0.35
O=C(CSc1nc2ncc(Br)cc2[nH]1)c1cccc([N+](=O)[O-])c1	0.33	-0.82
Oc1c(Br)cc(Br)cc1/C=N/n1c(-c2ccccc2)n[nH]c1=S	11*	1.2*
Cc1nc2c(sc(=S)n2Cc2ccco2)c(=O)n1CC(=O)Nc1ccc(F)cc1	1.5	0.33
Cc1c(CCCN)c2ccccc2n1Cc1ccccc1	0.72	0.31
CCOC(=O)N1CCN(C(=S)Nc2ccc(C)cc2C)CC1	0.87	0
Cc1n[nH]c(=S)n1-c1ccc(Cl)cc1	1.8	0.02

The listing continues:
smiles,KCNQ2 pot,KCNQ2 pot baseline
O=C(Nc1cc(C(F)(F)F)ccc1F)C1CCC1,1.7,-0.33
O=C(CNC(=O)c1cccs1)N=Nc1c(O)[nH]c2ccc(Br)cc12,0.15,1.3
CCC(C)C(=O)Nc1cc([N+](=O)[O-])ccc1Cl (stereo unspecified),2,-0.69
Cc1cccc(N2CCN(S(=O)(=O)c3ccc4c(c3)C(C)(C)C(=O)N4C)CC2C)c1 (stereo unspecified),0.02,0.23
COc1cccc(N(C(=O)Cn2nnc(-c3ccc(C)o3)n2)C(C(=O)NC(C)(C)C)c2cccs2)c1 (stereo unspecified),0.67,2.3
O=S(=O)(Cc1ccccc1)N1CCN(Cc2ccc(F)cc2Cl)CC1,0.4,0.87
CCn1c(CNC(=O)c2ccco2)nnc1SCC(=O)c1ccc(F)cc1,0.66,-0.08
O=C(NCCCn1ccnc1)c1sc2cccc(F)c2c1Cl,0.04,0.31
O=C1CCCN1Cc1ncnn1-c1ccccc1,1.5,0.25
CC(=O)NC(N(C#N)c1nc(Cl)nc(N(C)C)n1)C(Cl)(Cl)Cl (stereo unspecified),0.55,0.21
Cc1c(Cl)cccc1S(=O)(=O)Nc1ccnn1C,2.4,-0.85
CCN(CC(=O)Nc1c(F)cccc1F)C(=O)c1cc([N+](=O)[O-])ccc1N1CCOCC1,0.04,0.56

The closing seven compounds of the part before are carried over, then new ones follow.
smiles,KCNQ2 pot,KCNQ2 pot baseline
O=S(=O)(Cc1ccccc1)N1CCN(Cc2ccc(F)cc2Cl)CC1,0.4,0.87
CCn1c(CNC(=O)c2ccco2)nnc1SCC(=O)c1ccc(F)cc1,0.66,-0.08
O=C(NCCCn1ccnc1)c1sc2cccc(F)c2c1Cl,0.04,0.31
O=C1CCCN1Cc1ncnn1-c1ccccc1,1.5,0.25
CC(=O)NC(N(C#N)c1nc(Cl)nc(N(C)C)n1)C(Cl)(Cl)Cl (stereo unspecified),0.55,0.21
Cc1c(Cl)cccc1S(=O)(=O)Nc1ccnn1C,2.4,-0.85
CCN(CC(=O)Nc1c(F)cccc1F)C(=O)c1cc([N+](=O)[O-])ccc1N1CCOCC1,0.04,0.56
Cn1c(-c2ccccc2)cnc1SCc1nc2ccccc2c(=O)[nH]1,1.5,-2.4
O=C(Nc1ccccc1F)Oc1cccc(OC(=O)Nc2ccccc2F)c1,1.1,0.74
OCCNCC(O)Cn1c2ccccc2c2ccccc21 (stereo unspecified),0.02,-0.1
CCOP(=O)(OCC)C(NC(=O)Nc1ccc(C)cc1)C(N)=O (stereo unspecified),0.72,0.07
COc1ccc(NC(=O)C2CC(=O)N(c3cc(C)ccc3C)C2)cc1 (stereo unspecified),0.12,0.19
O=C(Nc1ccccc1Cl)NC1CCCCCCC1,0.88,0.74
CCOc1ccc(-n2ccnc(SCC(=O)Nc3cccc(OC)c3)c2=O)cc1,0.02,-1.4
COc1ccc(C)cc1NC(=O)CCC(=O)Nc1nnc(C2CCCCC2)s1,0.26,0.02
CNC(=S)NNc1nc(N2CCOCC2)nc(N2CCOCC2)n1,1.6,0.31
O=S(=O)(CCN1CCOCC1)c1ccc(OC(F)(F)F)cc1,1.1,-0.17
O=C(CCS(=O)(=O)c1ccccc1)Nc1ccc(Cl)cn1,1.2,-0.21
CN(C)CCCNc1ncnc2c1cnn2-c1ccccc1,1.2,0.09
CCCCCCNC(=O)Nc1ccccc1,5.9*,0.3*
CC(=O)c1cccc(NC(=S)NC(=O)c2ccc(Cl)cc2)c1,1.1,-0.45
O=C(N/N=C/c1ccc([N+](=O)[O-])o1)c1sc2ccccc2c1Cl,5.5*,0.35*
Cc1ccc2nsnc2c1S(=O)(=O)Nc1cccc2nsnc12,6.1*,0.11*
CCCCCOc1ccc(NC2=CC(=O)CCC2)cc1,0.86,0.2
CCn1cc(Br)c(C(=O)N2CCN(c3ccccc3)CC2)n1,0.65,-0.86
COCC(=O)Nc1ccc2nc3n(c(=O)c2c1)CCCCC3,0.97,0.15
CCOc1ccc(N2CC(C(=O)N3CCCC3)CC2=O)cc1 (stereo unspecified),0.07,1.8
Cc1ccccc1NC(=O)CCc1nnc2ccc(N3CCC4(CC3)OCCO4)nn12,0.27,-0.55
Cc1cccc(NC(=S)NNc2ncc(C(F)(F)F)cc2Cl)c1,1.8,-1.7
Cc1ccnc(NS(=O)(=O)c2ccccc2)n1,0.46,-1.6
COc1ccc(-c2nn(-c3ccccc3)cc2/C=N/Nc2ccc(S(N)(=O)=O)cc2[N+](=O)[O-])cc1OC,0.24,0.19
O=c1nccc(NCc2ccco2)[nH]1,0.8,2.8
COc1ccc2c(c1)O[C@@H](c1cccc(C(F)(F)F)c1)[C@H](OC(=O)NCCc1ccc(OC)c(OC)c1)C2=O,2.3,1.6
Cc1ccc(-n2nc(C)c3c(C)c(CCC(=O)NCc4ccccc4)c(C)nc32)cc1,0.11,-1.1
CC(C)(C)C1CCC(=NNC(=O)C(=O)NC2CCCCC2)CC1 (stereo unspecified),1.2,-0.47
COc1ccc(NC(=O)CSc2nnc3ccc(-c4cccnc4)nn23)cc1,2.6,-0.62
CCOC(=O)c1ccccc1NC1OC(=O)c2ccccc21 (stereo unspecified),0.29,1.9
COc1ccc(-c2occ(C(=O)O)c2C(=O)O)cc1,1.4,2
CCc1ccc(Nc2nc(N)nc(CSc3nnnn3-c3ccccc3)n2)cc1,0.19,-0.95
Cc1ccc(-n2[nH]c3c4c(ccc3c2=O)C(=O)c2ccccc2C4=O)cc1,0.05,0.22
CCOc1ccc(NC(=O)c2cc(S(=O)(=O)N3CCCCC3)c[nH]2)cc1,0.04,0.91
CCn1c(-c2ccc(F)cc2)n[nH]c1=S,0.15,0.06
CC(C)Cc1ccc(/C=C/C(=O)NC2CC2)cc1,0.65,-1.9

Entries of single compounds from above.
`Cc1c(Cl)cccc1S(=O)(=O)Nc1ccnn1C` is listed as KCNQ2 pot: 2.4; KCNQ2 pot baseline: -0.85
`O=S(=O)(CCN1CCOCC1)c1ccc(OC(F)(F)F)cc1` is listed as KCNQ2 pot: 1.1; KCNQ2 pot baseline: -0.17

Additional records follow.
smiles,KCNQ2 pot,KCNQ2 pot baseline
CCOC(=O)C1CCCN(C(=O)c2ccc(CNc3c(N4CCC(C)CC4)c(=O)c3=O)cc2)C1 (stereo unspecified),0.95,-0.17
CCOC(=O)c1[nH]c2ccc(OC)cc2c1NC(=O)OC,2.1,-0.76
Cc1ccc(CN(C(=O)c2ccc([N+](=O)[O-])cc2)C2CCS(=O)(=O)C2)o1 (stereo unspecified),1.7,1.8
CCN(CC)c1nc2c(c(=O)n(C)c(=O)n2C)n1CC(=O)c1ccccc1,0.53,-0.5
CC1CN(c2nnnn2-c2ccccc2)CC(C)O1 (stereo unspecified),0.66,-0.12
COC(=O)c1[nH]c2ccccc2c1NC(=O)Oc1ccccc1,0.05,-1.4
CCCC(=O)Nc1nc2ccc(OCC)cc2s1,0.13,1.2
O=C(N/N=C1\CCc2ccccc21)c1ccccc1Cl,0.15,-1.2
CCOc1ccccc1NC(=O)C1CCC(CNc2c(N3CCCCC3)c(=O)c2=O)CC1 (stereo unspecified),0.06,0.62
Cc1ccc(NC(=O)COC(=O)CCC(=O)c2cccs2)cc1,2.3,-0.69
Nc1nc(Cn2nnc(-c3ccccc3Cl)n2)nc(N2CCOCC2)n1,2.2,-0.01
CCc1ccc(C(CC(=O)O)N2Cc3ccccc3C2=O)cc1 (stereo unspecified),0.36,-0.11
CCc1ccc(C2CC(=O)N(c3cccc(F)c3)C3=C2C(=O)OC3)cc1 (stereo unspecified),0.29,0.37
Cc1cc(N/N=C/c2c[nH]c3ccccc23)c2ccccc2n1,0.01,2.2
CSc1ccc(/C=C/C(=O)c2ccc(NC(C)=O)cc2)cc1,0.25,0.77
Cc1ccc(OCCn2c3ccccc3n3nc(C)c(=O)nc23)cc1,0.25,0.87
CC(=O)Nc1ccc(Cl)cc1C(=O)O,0.79,-0.16
c1ccc(N2CCN(Cc3cn4ccccc4n3)CC2)cc1,1.1,-1.1

Screening results: PubChem BioAssay, Johns Hopkins Ion Channel Center

Not all compounds are listed; the hit share may differ from the screen's.
